gsp ag: gsp mutant agonism | gsp mutant cells, cAMP HTRF, 30 min; control for the full effect not named in the record | Potency, µM (titrated, usually from 76.9 µM), for inactives: top-dose activation (cAMP increase), usual class: activators | 340,000 compounds, 0.13% hits | AID 624287; active = well fitted activation curve with a large enough effect; inconclusive = small, poorly fitted or top-dose-only effect, or another doubt; inactive = no such curve, though single readings can be large or run the other way; cell line not stated here;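 also: phosphodiesterase inhibitor Ro 20-1724 added with compounds to block cAMP breakdown; potency is read from the fitted curve at half-maximal effect; nearly all actives have a fitted effect of over 60% in size; about a fifth of the inactives were tested at one dose only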
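Cells stably selected in G418 were plated at 2000/well, grown 16-24 hr, then given compounds in DMSO with the PDE inhibitor […] (300 uM solution added) for 30 min at 37C; cAMP was read by HTRF.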
gsp antag: antagonizes gsp, the McCune-Albright syndrome mutation. gsp-mutant cells, cAMP HTRF, 30 min; control for the full effect not named in the record. AID 624288. Potency, µM (doses to about 76.9 µM), for inactives: at the highest dose activity change, negative = inhibition, hits mostly inhibitors. 340,000 compounds, 0.4% hits; active = falling curve of any shape with a large fitted effect; inconclusive = falling curve, mostly with a smaller effect; inactive = flat or rising curve; cell line not stated here;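 also: intracellular cAMP measured with PDE inhibitor Ro 20-1724 present during compound exposure; potency is read from the fitted curve at half-maximal effect; % is scaled to controls: 0 for no effect and ±100 for the full control effect; nearly all actives have a fitted effect of over 65% in size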
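G418-selected cells were plated in DMEM/10% FBS for 16-24 h at 37C, then treated with compounds plus the PDE inhibitor […] (300 uM solution added) for 30 min at 37C. Intracellular cAMP was measured by HTRF after 30 min lysis at room temperature.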
Menin MLL FP FL: inhibitors of human menin-MLL interaction, wild-type MLL peptide. AID 1766. FP activity change, % at 61.4 µM. 290,000 tested, under 10 active. Fluorescence polarization, fluorescein-MLL peptide displacement from menin; inconclusive = falling polarisation curve, or a change in total fluorescence; inactive = total fluorescence flat and polarisation flat or rising; no compound was filed as active; the % refers to the polarisation; negative = inhibition;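 also: % of control where 0% means no effect; inhibitors lower the polarisation; unlabelled MLL peptide was the positive control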
ClpP mod: qHTS Assay for Activators of ClpP. Potency, µM (titrated, usually from 57.5 µM), without a hit: at the top dose activity change, negative = active. ATP-dependent Clp protease proteolytic subunit (Bacillus subtilis (strain 168)), P80244. 340,000 compounds, 1.9% hits. AID 651965, 2013. purified B. subtilis ClpP, FRET peptide cleavage, 20 min; active = well fitted falling curve with a large enough effect; inconclusive = small, poorly fitted or top-dose-only effect; inactive = no such curve, though single readings can be large or run the other way; also: potency is read from the fitted curve at half-maximal effect; the source files actives as falling curves though it sought activators and does not explain the sign; nearly all actives have a fitted effect of over 65% in size; many hits overshoot -100%
Target sequence (P80244 whole entry, looked up): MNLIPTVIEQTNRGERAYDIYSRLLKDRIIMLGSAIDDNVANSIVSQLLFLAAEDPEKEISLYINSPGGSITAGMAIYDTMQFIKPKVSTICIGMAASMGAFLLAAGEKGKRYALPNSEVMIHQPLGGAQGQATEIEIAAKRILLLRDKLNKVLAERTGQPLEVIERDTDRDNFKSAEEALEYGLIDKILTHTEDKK
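ClpP 10 microg/mL final, pH 8 Tris/KCl buffer with BSA, glycerol, Tween-20; compound pinned in; FRET-FV substrate; RT 20 min; Ex320/Em430; ΔFRET vs ADEP 5.8 microM, DMSO, no enzyme.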
* marks the source's active call; other numbers are inactive results; ? = inconclusive; . = not tested or not shown. A portion of the library; rates above refer to the full screens.

Key to letters – A = gsp ag; B = gsp antag; C = Menin MLL FP FL; D = ClpP mod
#1 O=C1/C(=C/c2ccc(N(CCCl)CCCl)cc2)Cc2ccccc21
  A: .	B: .	C: .	D: -1.2%
#2 CC(C)C[C@@H]1COc2cccc(N3CCN(C)CC3)c2S(=O)(=O)N1
  A: .	B: .	C: .	D: 1.0%
#3 NCC(=O)c1ccc(Br)cc1
  A: .	B: .	C: .	D: -1.8%
#4 Cc1cccc(C)c1-n1nnnc1C(c1ccccc1)N1CCC2(CC1)C(=O)NCN2c1ccccc1 (centres undefined)
  A: .	B: .	C: .	D: -5.8%
#5 O=C(O)c1cc[c]([Sb](=[O])([OH])[OH])cc1[N+](=O)[O-]
  A: .	B: .	C: .	D: -0.4%
#6 COc1ccc(-c2ccc3c(c2)CN(C(=O)NC2CCCCC2)Cc2cnnn2-3)cc1
  A: .	B: .	C: .	D: 5.5%
#7 Brc1ccc2c(c1)CN(CC1CCCCC1)Cc1cnnn1-2
  A: .	B: .	C: .	D: -0.4%
#8 CC(=O)OC1C(O)C2=C3C4(C)C1C(C)(C)C(=O)CC4C3(O)C(OC(C)=O)C1(CC1C)C2=O (centres undefined)
  A: .	B: .	C: .	D: -0.6%
#9 CCC(c1nnnn1-c1ccc2c(c1)OCCO2)N1CCC(n2c(=O)[nH]c3ccccc32)CC1 (centres undefined)
  A: .	B: .	C: .	D: 1.2%
#10 CCOC(=O)[C@]12Cc3cc(Cl)ccc3[C@H]1N(C)C(=O)c1ccccc12
  A: .	B: .	C: .	D: -0.1%
#11 CCOC(=O)CNC(=O)N1Cc2cc(N3CCOCC3)ccc2-n2nncc2C1
  A: .	B: .	C: .	D: 0.6%
#12 CC[C@H](C)[C@@H]1NC(=O)CNC(=O)c2csc(n2)[C@H](C(C)(C)O)OC(=O)C(C)(C)[C@H](CCCC(C)(Cl)Cl)OC(=O)c2csc1n2
  A: .	B: .	C: .	D: 1.5%
#13 NCC(=O)c1ccc2ccccc2c1
  A: .	B: .	C: .	D: 4.3%
#14 [O]=[Sb]([OH])([OH])[c]1ccccc1
  A: .	B: .	C: .	D: -0.3%
#15 COc1ccc(C(c2nnnn2C2CCCCC2)N2CCC3(CC2)C(=O)NCN3c2ccccc2)cc1 (centres undefined)
  A: .	B: .	C: .	D: -0.6%
#16 ClCCN(CCCl)c1ccc(C=Nc2ccncc2)cc1
  A: .	B: .	C: .	D: -6.1%
#17 CC[C@@H]1c2ccccc2[C@@H]2CC[C@H]1N2c1ccccc1
  A: .	B: .	C: .	D: 0.0%
#18 O=C1NCN(c2ccccc2)C12CCN(C(c1ccnc3ccccc13)c1nnnn1C1CCCCC1)CC2 (centres undefined)
  A: .	B: .	C: .	D: -2.8%
#19 CC(C)(C)n1nnnc1C(c1ccnc2ccccc12)N1CCC2(CC1)C(=O)NCN2c1ccccc1 (centres undefined)
  A: .	B: .	C: .	D: -0.9%
#20 CC(C)(C)C(=O)N1Cc2cc(-c3cccc(F)c3)ccc2-n2nncc2C1
  A: .	B: .	C: .	D: -0.7%
#21 N#CC1c2ccccc2-n2nncc2CN1C(=O)c1ccccc1F (centres undefined)
  A: .	B: .	C: .	D: 1.9%
#22 COc1ccc(-n2nnnc2C(CCSC)N2CCC3(CC2)C(=O)NCN3c2ccccc2)cc1 (centres undefined)
  A: .	B: .	C: .	D: -3.6%
#23 C=CCN1Cc2ccccc2-n2nncc2C1
  A: .	B: .	C: .	D: -1.8%
#24 Fc1cccc(-c2ccc3c(c2)CN(c2cccc(Cl)c2)Cc2cnnn2-3)c1
  A: .	B: .	C: .	D: 31.6µM*
#25 CCOC(=O)[C@]12Cc3ccccc3[C@H]1N(C(C)C)C(=O)c1cc(OC)ccc12
  A: .	B: .	C: .	D: -2.9%
#26 ClCCN(CCCl)c1ccc(/C=C/c2ccnc3ccccc23)cc1
  A: .	B: .	C: .	D: -5.1%
#27 O=[N+]([O-])c1cc(C(F)(F)F)c(Cl)c([N+](=O)[O-])c1Nc1ncc(C(F)(F)F)cc1Cl
  A: .	B: .	C: .	D: -0.8%
#28 S=C(NCCc1ccccc1)N1Cc2cc(N3CCOCC3)ccc2-n2nncc2C1
  A: .	B: .	C: .	D: -8.9%
#29 CC(C)(C)n1nnnc1C(CCc1ccccc1)N1CCC(n2c(=O)[nH]c3ccccc32)CC1 (centres undefined)
  A: .	B: .	C: .	D: -9.9%
#30 CCC1(CCC(C)C)C(=O)NC(=O)N(c2ccccc2)C1=O (centres undefined)
  A: .	B: .	C: .	D: 1.2%
#31 Cc1ccc(CN2Cc3ccc(Br)cc3-n3nncc3C2)cc1
  A: .	B: .	C: .	D: -0.6%
#32 CC(=O)NCC(N)C(=O)c1ccc(Cl)c(Cl)c1 (centres undefined)
  A: .	B: .	C: .	D: 1.2%
#33 O=S(=O)(c1ccc(Cl)cc1)N1Cc2cc(Br)ccc2-n2nncc2C1
  A: .	B: .	C: .	D: -1.4%
#34 O=C(NC1CCCCC1)N1Cc2cc(N3CCCCC3)ccc2-n2nncc2C1
  A: .	B: .	C: .	D: -3.4%
#35 CCC1(c2ccc(C)cc2)C(=O)NC(=S)NC1=O
  A: .	B: .	C: .	D: -0.8%
#36 O=[N+]([O-])c1nccn1CC(O)CN1CC1 (centres undefined)
  A: .	B: .	C: .	D: -4.0%
#37 COC(=O)C[C@H]1CC[C@H]2NC[C@@H](O)COC[C@@H]2O1
  A: .	B: .	C: .	D: -0.2%
#38 COC1CC2C=C(C)C=CC=CC(=O)NC(c3ccccc3)CC=CCCC(O)CC(=O)C2=C1O (centres undefined)
  A: .	B: .	C: .	D: -2.5%
#39 Cc1cccc(C)c1-n1nnnc1C(c1cccc2ccccc12)N1CCC(n2c(=O)[nH]c3ccccc32)CC1 (centres undefined)
  A: .	B: .	C: .	D: -0.9%
#40 CN(C)c1ccc(N=O)cc1
  A: .	B: .	C: .	D: 1.0%
#41 CCC(c1nnnn1C1CCCC1)N1CCC2(CC1)C(=O)NCN2c1ccccc1 (centres undefined)
  A: .	B: .	C: .	D: 0.2%
#42 c1cc2c(cc1N1CCOCC1)CNCc1cnnn1-2
  A: .	B: .	C: .	D: -2.4%
#43 COc1ccc(-n2nnnc2C(c2cccs2)N2CCC3(CC2)C(=O)NCN3c2ccccc2)cc1 (centres undefined)
  A: .	B: .	C: .	D: -2.1%
#44 CCCCCN1C(=O)c2cc(OC)ccc2[C@@]2(C(=O)OCC)Cc3cc(OC)ccc3[C@@H]12
  A: .	B: .	C: .	D: -1.8%
#45 CCOC(=O)[C@]12Cc3ccc4ccccc4c3[C@H]1N(Cc1ccccc1)C(=O)c1ccccc12
  A: .	B: .	C: .	D: 2.5%
#46 CC(C)(C)C(=O)N1Cc2cc(N3CCCCC3)ccc2-n2nncc2C1
  A: .	B: .	C: .	D: -5.8%
#47 c1ccc(N2CCN(c3ccccc3)CC2)cc1
  A: .	B: .	C: .	D: -2.4%
#48 COc1ccc(-n2nnnc2C(C2CC2)N2CCC3(CC2)C(=O)NCN3c2ccccc2)cc1 (centres undefined)
  A: .	B: .	C: .	D: -1.6%
#49 O=C1NCN(c2ccccc2)C12CCN(C(c1cc3ccccc3o1)c1nnnn1C1CCCCC1)CC2 (centres undefined)
  A: .	B: .	C: .	D: 1.2%
#50 CSCCC(c1nnnn1C1CCCC1)N1CCC(n2c(=O)[nH]c3ccccc32)CC1 (centres undefined)
  A: .	B: .	C: .	D: 1.7%

Continued:
Key to letters – A = gsp ag; B = gsp antag; C = Menin MLL FP FL; D = ClpP mod
#51 CC(C)C[C@@H]1COc2cc(N3CCN(C)CC3)ccc2S(=O)(=O)N1
  A: .	B: .	C: .	D: -1.4%
#52 COc1ccc(-n2nnnc2C(c2ccccc2OC(F)(F)F)N2CCC3(CC2)C(=O)NCN3c2ccccc2)cc1 (centres undefined)
  A: .	B: .	C: .	D: -0.5%
#53 CN[C@@H](C)[C@H](O)c1ccccc1
  A: .	B: .	C: 1.2	D: 0.5%
#54 COc1ccc(OC(=O)N(C)C[C@@H]2OCc3cnnn3CCCC(=O)N([C@@H](C)CO)C[C@@H]2C)cc1
  A: ?	B: .	C: .	D: 0.2%
#55 CS(=O)(=O)c1ccc(C2=C(CNC(=O)c3cccs3)[C@H]3CC[C@@H](C2)N3Cc2ccco2)cc1
  A: 26.7%	B: .	C: .	D: -2.9%
#56 Cc1ccc([C@H]2C[C@@H](O)[C@H](n3cc(COC(=O)c4ccccc4)nn3)CN2C(=O)C2CCCCC2)cc1
  A: ?	B: .	C: .	D: -0.6%
#57 CCOC(=O)c1cccc(C2=C(CNC(=O)c3cccnc3)[C@H]3CC[C@@H](C2)N3Cc2ccccc2)c1
  A: -1.1%	B: .	C: .	D: -2.4%
#58 CS(=O)(=O)c1ccc(C2=C(CNC(=O)c3cccs3)[C@H]3CC[C@@H](C2)N3CCOc2ccccc2)cc1
  A: 16.6%	B: .	C: .	D: -25.0%
#59 C[C@@H]1CN([C@H](C)CO)C(=O)CCCn2nncc2CO[C@H]1CN(C)C(=O)Oc1ccccc1
  A: 2.6%	B: .	C: .	D: 1.7%
#60 CC(=O)O[C@@H]1/C=C/[C@](C)(O)C[C@@H](C)C/C=C/[C@H]2[C@H](O)[C@@](C)(O)[C@@H](C)[C@H]3[C@H](Cc4ccccc4)NC(=O)[C@@]312
  A: .	B: 8.4%	C: .	D: -1.4%

Of the compounds above, these have sulfur.
Key to letters – A = gsp ag; B = gsp antag; C = Menin MLL FP FL; D = ClpP mod
#2 CC(C)C[C@@H]1COc2cccc(N3CCN(C)CC3)c2S(=O)(=O)N1
  A: .	B: .	C: .	D: 1.0%
#12 CC[C@H](C)[C@@H]1NC(=O)CNC(=O)c2csc(n2)[C@H](C(C)(C)O)OC(=O)C(C)(C)[C@H](CCCC(C)(Cl)Cl)OC(=O)c2csc1n2
  A: .	B: .	C: .	D: 1.5%
#22 COc1ccc(-n2nnnc2C(CCSC)N2CCC3(CC2)C(=O)NCN3c2ccccc2)cc1 (centres undefined)
  A: .	B: .	C: .	D: -3.6%
#28 S=C(NCCc1ccccc1)N1Cc2cc(N3CCOCC3)ccc2-n2nncc2C1
  A: .	B: .	C: .	D: -8.9%
#33 O=S(=O)(c1ccc(Cl)cc1)N1Cc2cc(Br)ccc2-n2nncc2C1
  A: .	B: .	C: .	D: -1.4%
#35 CCC1(c2ccc(C)cc2)C(=O)NC(=S)NC1=O
  A: .	B: .	C: .	D: -0.8%
#43 COc1ccc(-n2nnnc2C(c2cccs2)N2CCC3(CC2)C(=O)NCN3c2ccccc2)cc1 (centres undefined)
  A: .	B: .	C: .	D: -2.1%
#50 CSCCC(c1nnnn1C1CCCC1)N1CCC(n2c(=O)[nH]c3ccccc32)CC1 (centres undefined)
  A: .	B: .	C: .	D: 1.7%
#51 CC(C)C[C@@H]1COc2cc(N3CCN(C)CC3)ccc2S(=O)(=O)N1
  A: .	B: .	C: .	D: -1.4%
#55 CS(=O)(=O)c1ccc(C2=C(CNC(=O)c3cccs3)[C@H]3CC[C@@H](C2)N3Cc2ccco2)cc1
  A: 26.7%	B: .	C: .	D: -2.9%
#58 CS(=O)(=O)c1ccc(C2=C(CNC(=O)c3cccs3)[C@H]3CC[C@@H](C2)N3CCOc2ccccc2)cc1
  A: 16.6%	B: .	C: .	D: -25.0%
